# Assay outcomes from PubChem.
# Yeast UUG start – yeast start codon fidelity modulation. activity score, % at 18.7 µM. S. cerevisiae UUG-firefly luciferase reporter, luminescence/redox ratio. 0.13% of 350,000 active;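 active = replicate mean at a twofold rise or more, about +100% in these data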;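 also: firefly luciferase made from a UUG start codon reports start codon fidelity; reporter light over untreated wells divided by growth signal over untreated wells; some hits fall short of that in this replicate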
# eIF4H inh – inhibitors of RNA binding by human eIF4H | eIF4H fluorescence polarization binding assay | Q15056 | inhibition, % at 35 µM | AID 2012 | 0.94% of 290,000 active;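 active = 50% or more with normal probe brightness, or confirmed in later tests; inconclusive = above 50% with abnormal brightness, or retests that disagree; inactive = below 50% or failed in later tests; about a fifth of its hits are not listed in these tables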;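 also: calls also rest on retests at 20 µM and on dose response follow-up; 0% = protein and probe with vehicle and 100% = probe without protein; strong numbers were not always called active; many hits fall short of the cut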
# MT1-MMP act inh – blocks activation of human MT1-MMP | GFP/RFP ratio change, % at 20 µM | P50281 | 0.061% of 360,000 active | AID 651647 | HT1080 RFP-PRO-GFP cells, GFP/RFP ratio fluorescence, overnight; percent of plate control window, DMSO zero;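 active = GFP/RFP ratio change of at least 30% with cell ATP level not reduced by more than half and red fluorescence within 50% of control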; also: strong numbers were not always called active
#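 Material – HT1080 RFP-PRO-GFP cells · Control set – DMSO wells and RFP-L50D-GFP cells · Incubation – overnight cell settling, then overnight compound exposure, 37 °C, 5% CO2 · Compound dosing – single-point 20 µM compound, 1% DMSO · Read-out – GFP/RFP fluorescence ratio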
# PABP polyA inh – blocks human PABP binding to poly(A) RNA; fluorescence polarization; P11940; 1% of 290,000 active; AID 2014; inhibition, % at 35 µM;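 active = 50% or more with normal probe brightness, or confirmed in later tests; inconclusive = above 50% with abnormal brightness, or retests that disagree; inactive = below 50% or failed in later tests; about a fifth of its hits are not listed in these tables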;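 also: calls also rest on retests at 20 µM and on dose response follow-up; controls were probe without protein and protein plus probe with vehicle; some compounds called inactive have numbers as strong as hits; many hits fall short of the cut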
# Target sequence (P11940 whole entry, looked up): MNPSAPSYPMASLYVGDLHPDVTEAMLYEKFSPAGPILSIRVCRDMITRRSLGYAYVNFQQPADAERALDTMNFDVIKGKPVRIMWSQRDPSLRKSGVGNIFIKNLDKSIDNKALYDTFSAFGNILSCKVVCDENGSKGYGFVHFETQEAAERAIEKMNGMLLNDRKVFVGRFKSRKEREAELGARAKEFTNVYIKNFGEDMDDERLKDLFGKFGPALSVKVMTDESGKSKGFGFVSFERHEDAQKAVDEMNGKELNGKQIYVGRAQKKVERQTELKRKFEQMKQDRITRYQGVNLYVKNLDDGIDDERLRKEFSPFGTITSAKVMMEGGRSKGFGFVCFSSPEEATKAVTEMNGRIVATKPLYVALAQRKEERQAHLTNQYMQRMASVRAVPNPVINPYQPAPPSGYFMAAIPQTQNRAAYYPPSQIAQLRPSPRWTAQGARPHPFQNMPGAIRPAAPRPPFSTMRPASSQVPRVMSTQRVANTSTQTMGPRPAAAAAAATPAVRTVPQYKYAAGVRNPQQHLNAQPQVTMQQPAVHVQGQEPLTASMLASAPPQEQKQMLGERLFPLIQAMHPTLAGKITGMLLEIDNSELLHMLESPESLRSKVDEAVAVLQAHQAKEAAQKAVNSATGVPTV
# CSC inhib – blocks cancer stem cells | AID 2717 | 1.1% of 300,000 active | inhibition, % at 7.5 µM | cancer stem cell-like cells viability, luminescence;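 active = mean at 75% or more and at least half the replicates too; inconclusive = mean and replicates disagree; tested in HMLE shEcad cells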;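 also: 0% = median of negative and 100% = median of positive control wells; the first replicate is given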
# Rce1 inh – inhibitors of yeast Ras-converting enzyme; Q03530; yeast membranes, quenched prenylated peptide cleavage fluorescence; calls only; 0.27% of 290,000 active; AID 2563;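 active = fall in fluorescence gain of 50% or more versus controls, with final raw signal at or below 3038400; inconclusive = same 50% fall but final raw signal above 3038400; inactive = fall in fluorescence gain under 50%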;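 also: plate controls were neutral control wells for no effect and wells lacking membranes for full effect; tested at 10 µM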
# Target sequence (Q03530 whole entry, looked up): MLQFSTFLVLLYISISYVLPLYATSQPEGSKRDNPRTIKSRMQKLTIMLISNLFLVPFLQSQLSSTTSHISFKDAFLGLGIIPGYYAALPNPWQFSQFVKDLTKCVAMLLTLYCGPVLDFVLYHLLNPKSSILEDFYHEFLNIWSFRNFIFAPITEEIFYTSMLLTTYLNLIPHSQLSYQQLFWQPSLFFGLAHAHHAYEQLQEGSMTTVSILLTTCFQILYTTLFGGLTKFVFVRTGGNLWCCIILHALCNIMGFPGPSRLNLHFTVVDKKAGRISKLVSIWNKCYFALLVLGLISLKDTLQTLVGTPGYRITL
# Env fusion inh – blocks HIV Env-driven cell-cell fusion; HeLa-JRFL Env/CEM21 cell fusion, luciferase; inhibition, % at 12.3 µM; 1.1% of 360,000 active;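 active = mean replicate inhibition score of at least 50 and every replicate individually at or above 50; inconclusive = only one of the two criteria met; inactive = mean below 50 and not all replicates reaching 50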;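 also: 0% = plate neutral controls and 100% = maraviroc near 300 nM; one replicate is shown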
# eIF4H inh retest – recorded beside eIF4H inh, whose call it bears; inhibition, %; compound at 20 µM; confirmation average;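 mean of two retest wells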
# PABP polyA inh retest – second read-out of PABP polyA inh, no call of its own (marks repeat the call); inhibition, %; compound at 20 µM; confirmation repeats;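 mean of two retest wells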
# MT1-MMP act inh RFP – further read-out of MT1-MMP act inh, marked with its call; RFP signal change, %; measured here: RFP expression control read;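 0 = vehicle wells; hits needed this value within 50% of zero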
# Active calls of the source: *; i = inactive; ? = inconclusive; nt = not tested or not shown; + = active, no number; & = joins results of further samples; [ ] = remark or other dose.
SMILES,Yeast UUG start,eIF4H inh,MT1-MMP act inh,MT1-MMP act inh RFP,PABP polyA inh,CSC inhib,Rce1 inh,Env fusion inh,others
CCOc1ccc(Br)cc1S(=O)(=O)N1CCCN(C)CC1,-12,17,-8,-2,29,-17,i,-3,
COc1ccc(CN2CCN(Cc3cn(C)nc3-c3ccccc3)CC2CCO)c(C)c1C (stereo unspecified),-5,-6,1,-4,1,-6,i,-12,
CC1CC(=O)N(c2ccc(NCCc3ccccc3)c([N+](=O)[O-])c2)C1=O (stereo unspecified),-11,-1,8,-2,10,8,i,17,
CCOC(=O)c1ccc(NC2=CC(=O)CC(c3ccco3)C2)cc1 (stereo unspecified),nt,-7,3,0,4,-8,i,-24,
Cc1ccc(NC(CC(=O)c2ccccc2)c2ccc(F)cc2)cc1 (stereo unspecified),nt,0,0,0,8,8,i,-14,
Cc1ccc(S(=O)(=O)/N=C(\N)Nc2nc(C)c3cc(C)c(C)cc3n2)cc1,-5,-12,-2,-11,4,10,i,-36,
O=C(CSc1ncccn1)N/N=C/c1ccc(OC2CSC2)cc1,nt,-2,4,8,59,2,i,7,eIF4H inh retest=5;PABP polyA inh retest=-2
Cc1cccc(C(=O)Nc2nnc(SCC(=O)Nc3ccc4c(c3)oc3ccccc34)s2)c1,nt,-3,-3,0,-12,3,i,12,
COc1cc(CNC2CCC(C)C2)cc(OC)c1 (stereo unspecified),-15,-10,-5,2,-4,-8,i,-10,
Cc1c(Cl)cccc1NC(=S)NCc1ccco1,nt,0,4,-7,7,-3,i,-9,
CCN(CC)C(=O)CSc1nnc(-c2ccncc2)n1N,-18,-13,2,5,10,-22,i,-85,
Cc1nc2ccccc2c(C)c1CC(=O)N(CC(C)C)c1c(N)n(Cc2ccccc2)c(=O)[nH]c1=O,8,nt,-4,-2,nt,6,i,-33,
CC1CN(C)C(c2ccccc2)C(C)C12NC(=O)NC2=O (stereo unspecified),-12,6,0,5,-8,-3,i,nt,
C#CCOC(=O)Nc1ccc(=O)n(Cc2c(Cl)cccc2Cl)c1,17,5,6,3,12,-7,i,-39,
COc1cc(CN2CCC(C(=O)NC3CCCC3)CC2)ccc1O,-13,8,-1,7,19,-12,i,7,
O=C(Cn1c(=O)oc2cc(S(=O)(=O)N3CCCC3)ccc21)N1CCc2ccccc2C1,-10,4,0,4,4,-3,i,12,
Cc1ccccc1-c1noc(CCC(=O)NCCc2ccccc2)n1,-6,0,1,3,4,-14,i,-9,
COc1ccc(N(CC(=O)Nc2c(C)n(C)n(-c3ccccc3)c2=O)S(=O)(=O)c2ccccc2)cc1OC,nt,-6,0,3,-6,-5,i,nt,
CC1(C(=O)NS(=O)(=O)c2cccc(Cl)c2)CCN1C(=O)CC1CC1 (stereo unspecified),2,nt,-1,1,nt,nt,nt,-15,
O=C(N/N=C/c1sc(N2CCCCC2)nc1-c1cccs1)c1cccnc1,-10,?,-60,-10,-16,30,i,25,
COc1ccc(OC)c(NC2c3ccccc3C(=O)N2c2cccnc2)c1 (stereo unspecified),1,8,3,4,-12,-5,i,0,
COC(=O)c1ccccc1NS(=O)(=O)c1c(C)noc1C,-18,-2,-1,2,6,-1,i,5,
Cc1cc(C)c(S(=O)(=O)NCCn2c(C)cc3ccccc32)c(C)c1,6,?,42,50,-1,6,i,10,
CC(C)Oc1ccc(C(=O)Nc2ccccc2N2CCOCC2)cc1,4,-12,5,-7,0,20,i,20,
O=C(Nc1cccc(S(=O)(=O)N2CCCCC2)c1)c1ccc(OCC2CCCO2)cc1 (stereo unspecified),0,-5,-2,-16,0,7,i,-4,

# Other results:
SMILES,Yeast UUG start,eIF4H inh,MT1-MMP act inh,MT1-MMP act inh RFP,PABP polyA inh,CSC inhib,Rce1 inh,Env fusion inh,others
Cc1ccc(NC(=O)c2cc3c(CO)cnc(C)c3oc2=Nc2cccc(C(N)=O)c2)cc1,10,-6,-1,-3,-1,4,i,19,
Oc1ccc(N=Nc2nccs2)c(O)c1,-54,49,21,-2,26,62,i,nt,
C[C@H](CO)N1C[C@H](C)[C@@H](CN(C)Cc2ccccc2)Oc2c(NC(=O)c3ccncc3)cccc2C1=O,-9&-28,nt,0,4,nt,nt,nt,13[16.7 µM],
CC1CCCC(NC(=O)Cn2c(Cl)nc3c2c(=O)n(C)c(=O)n3C)C1C (stereo unspecified),-9,nt,-2,-8,nt,nt,nt,9,
COc1ccccc1CNC(=O)C1CCN(S(=O)(=O)N2CC(C)CC(C)C2)CC1 (stereo unspecified),nt,-5,-1,-1,9,-5,nt,nt,
CCCCNC(=O)c1cc2nc(-c3ccccc3)cc(C(F)(F)F)n2n1,-8,-13,-2,1,1,-3,i,14,
O=C(NCC1CCCO1)C(C(=O)c1ccccc1)n1ccccc1=O (stereo unspecified),-13,4,3,3,0,-13,i,-54,
COc1ccccc1-c1csc(C(O)c2cccc(Cl)c2)n1 (stereo unspecified),-6,nt,-4,-3,nt,nt,nt,3,
Clc1ccc(Nc2nc(-c3cccnc3)cs2)cc1,-12,-4,-6,-2,25,-8,i,nt,
Cc1ccc2ccccc2c1NC(=O)c1ccco1,-10,0,0,1,2,0,i,12,
CN1CCN(C(=O)c2ccc(Cc3cn(C)c4ccccc34)nc2)CC1,-5,nt,0,3,nt,nt,nt,8,
N#CCC(=O)N/N=C/c1cn(Cc2ccccc2C#N)c2ccccc12,-10,5,-4,1,48,-9,i,-12,
C(=N\N1CCN(Cc2cccc3ccccc23)CC1)/c1ccco1,-28,-2,6,1,-13,28,nt,nt,
COc1ccc(-c2c(C)c3cc(O)ccc3oc2=O)cc1OC,-13,-15,0,0,1,-2,i,-7,
C=CC(=O)Nc1ccc(N(C)c2ccnc(Nc3ccc(N4CCN(C)CC4)cc3)n2)cc1,-22,nt,-17,-8,nt,nt,nt,24,
CCS(=O)(=O)N1CCCC(C(=O)NC2CCCCC2C)C1 (stereo unspecified),-18,0,1,9,-2,-12,i,nt,
O=S(=O)(Nc1ccc(NS(=O)(=O)c2ccccc2)c(Cl)c1)c1ccccc1,-13,nt,2,0,nt,nt,nt,-11,
Oc1cc(NCCc2cccnc2)cc2cccnc12,-27,nt,-3,-2,nt,nt,nt,-8,
COC(=O)C1CCN(S(=O)(=O)c2c[nH]c(=O)[nH]c2=O)CC1,-20,nt,-1,4,nt,nt,nt,30,
COc1ccc(OC)c(C(c2nnnn2CCc2ccccc2)N2CCC(C(N)=O)CC2)c1 (stereo unspecified),-2,-4,0,1,6,16,i,nt,
COCCNC(=O)C(c1ccc(F)cc1)N(C(=O)CCC(=O)Nc1nccs1)c1ccc(C)cc1 (stereo unspecified),nt,-7,-4,-4,-2,5,i,2,
COc1ccc(OC(=O)COc2cc(C)ccc2C)cc1,-2,-2,0,0,-4,-3,i,-7,
CCC(C)(C(=O)NC1CCCCC1)N(Cc1cccs1)C(=O)Cc1cccs1 (stereo unspecified),nt,-3,-4,-4,1,-10,i,?,
CN(C)c1ccc(-c2noc(C3CCN(S(=O)(=O)c4ccc(C(=O)O)cc4)CC3)n2)cc1,-6,nt,4,-4,nt,-9,i,12,
COc1ccc(C(=O)Nc2ccncc2)cc1S(=O)(=O)N1CCOCC1,-1,nt,9,-1,nt,-12,nt,nt,

# (more compounds)
SMILES,Yeast UUG start,eIF4H inh,MT1-MMP act inh,MT1-MMP act inh RFP,PABP polyA inh,CSC inhib,Rce1 inh,Env fusion inh,others
O=C(Cc1ccc(F)cc1)N/N=C/c1ccccn1,nt,-2,5,7,-12,3,nt,-3,
CC(=O)c1ccc(NC(=O)CN2C(=O)NC(C)(C3CCCCC3)C2=O)cc1 (stereo unspecified),-6,nt,1,4,nt,-5,nt,nt,
COc1ccccc1C1/C(=C(\O)c2ccc3c(c2)OCCO3)C(=O)C(=O)N1Cc1cccnc1 (stereo unspecified),-12,-7,0,1,-2,-2,i,-5,
Cc1ccc(NC(=O)CC2=NC(=O)C(CC(=O)Nc3ccccc3C)S2)cc1 (stereo unspecified),-11,15,4,2,6,-5,i,-1,
CC1Cc2cc(S(=O)(=O)N3CCC(C(=O)N4CCCCC4)CC3)ccc2N1C(=O)C1CC1 (stereo unspecified),-10,-12,nt,nt,-2,-1,i,-4,
COC(=O)c1cc(=O)n2c(-c3ccccc3)csc2n1,-9,-10,1,3,2,0,i,nt,
O=C(Nc1ccccn1)C1(c2cccs2)CCOCC1,-8,-4,5,9,1,-4,i,6,
CCOc1ccc(C(=O)NCC2CCCN2S(=O)(=O)c2cccs2)cc1 (stereo unspecified),-22,nt,5,0,nt,nt,i,-22,
Cc1ccc(C(=O)Nc2ccc(F)cc2)o1,nt,-4,1,7,-8,0,i,-22,
O=C(CSc1nnc(-c2ccncc2)n1CC1CCCO1)Nc1cccc(O)c1 (stereo unspecified),-13,1,2,4,-5,9,i,-100,
OC1CNCc2cc3c(cc21)OCCO3 (stereo unspecified),nt,-2,nt,nt,-7,-5,i,nt,
Cc1cccnc1NC(=O)CCc1c[nH]c2ccccc12,-4,-15,4,2,-9,6,i,1,
COc1cc(/C=C/C(=O)OCC(=O)c2c(N)n(C)c(=O)n(C)c2=O)ccc1OCC#N,nt,-4,-7,-7,12,-1,i,21,
FC(F)Oc1ccccc1/C=N/Nc1nc2ccccc2o1,-18,-16,3,1,14,10,i,-59,
Cc1cc(C)n(Cc2ccc(NC(=O)c3ccc(COc4ccccc4Br)cc3)cc2)n1,-17,6,-1,-18,-6,125*,+,79*,
COc1ccc(NS(=O)(=O)c2cc(NC(=O)c3ccc(=O)[nH]n3)ccc2C)cc1,-26,nt,1,-8,nt,nt,nt,10,
CCOc1ccc(NC(=O)CSc2nnc(C(C)C)n2CC)cc1,-12,6,-1,1,-10,-7,i,-14,
Cc1ccc(S(=O)(=O)N(C)CCCC(=O)N2CCOCC2)cc1,-6,-10,5,4,0,-2,i,nt,
Cc1cn2c(nc(=O)c3cccnc32)s1,nt,-5,2,6,-1,12,i,22,
CCOC(=O)Cc1[nH]nc2c1C(c1cccc(OC)c1OC)C(C#N)=C(N)O2 (stereo unspecified),-23,-5,-5,0,3,13,i,-28,
O=C(Nc1ccc(OC(F)F)cc1)Nc1cccc(C(F)(F)F)c1,-8,8,-37,-31,7,71,i,75*,
CCN1CCN(CCCNC(=O)CNC(=O)c2nn(-c3ccc(OC)cc3OC)c(=O)c3ccccc23)CC1,-1,-5,-1,5,-2,1,i,6,
CC(C)(C)c1ccc(NC(=O)COc2ccc(-n3ccnc3)cc2)cc1,nt,-1,-5,-29,0,51,i,nt,
Cc1nn(C(=O)c2nn(C)cc2[N+](=O)[O-])c(C)c1Br,nt,-9,-2,3,-1,2,i,7,
COc1ccc(CCNC(=O)c2cc(-c3ccccc3O)n[nH]2)cc1OC,-17,4,4,-1,-5,14,i,-100,
CCn1c(Oc2ccccc2)nc2c1c(=O)n(C)c(=O)n2C,-19,-12,-7,-5,-7,-19,i,32,
CCN(CC)CCN(C(=O)CCS(=O)(=O)c1ccccc1)c1nc2cc3c(cc2s1)OCO3,-2,-27,-2,1,-12,4,i,-17,

# Reprinted at random: 3 entries already listed
SMILES,Yeast UUG start,eIF4H inh,MT1-MMP act inh,MT1-MMP act inh RFP,PABP polyA inh,CSC inhib,Rce1 inh,Env fusion inh,others
CCOc1ccc(C(=O)NCC2CCCN2S(=O)(=O)c2cccs2)cc1 (stereo unspecified),-22,nt,5,0,nt,nt,i,-22,
Cc1cn2c(nc(=O)c3cccnc32)s1,nt,-5,2,6,-1,12,i,22,
CCN(CC)CCN(C(=O)CCS(=O)(=O)c1ccccc1)c1nc2cc3c(cc2s1)OCO3,-2,-27,-2,1,-12,4,i,-17,
